High-throughput results: PubChem BioAssay, National Center for Advancing Translational Sciences (NCATS)
Menin-MLL FL inh: inhibitors of human menin-MLL interaction, wild-type MLL peptide | 290,000 tested, under 10 active | FP activity change, % at 61.4 µM | Fluorescence polarization, fluorescein-MLL peptide displacement from menin | AID 1766; inconclusive = falling polarisation curve, or a change in total fluorescence; inactive = total fluorescence flat and polarisation flat or rising; no compound was filed as active; the % refers to the polarisation; negative = inhibition;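 also: % of control where 0% means no effect; inhibitors lower the polarisation; unlabelled MLL peptide was the positive control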
gsp antag: gsp mutant antagonism; Potency, µM (series often up to 76.9 µM), for the others: top-dose activity change, negative = inhibition, hits mostly inhibitors; gsp-mutant cells, cAMP HTRF, 30 min; control for the full effect not named in the record; actives 0.4% (n = 340,000); active = falling curve of any shape with a large fitted effect; inconclusive = falling curve, mostly with a smaller effect; inactive = flat or rising curve; cell line not stated here;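 also: intracellular cAMP measured with PDE inhibitor Ro 20-1724 present during compound exposure; potency is read from the fitted curve at half-maximal effect; % is scaled to controls: 0 for no effect and ±100 for the full control effect; nearly all actives have a fitted effect of over 65% in size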
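G418-selected cells were plated in DMEM/10% FBS for 16-24 h at 37C, then treated with compounds plus the PDE inhibitor […] (300 uM solution added) for 30 min at 37C. Intracellular cAMP was measured by HTRF after 30 min lysis at room temperature.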
TRPML1 inh: inhibitors of human TRPML1 channel. TRPML1-inducible cells, Ca2+ dye fluorescence, FDSS; hits give low values; inhibition of EC80 agonist-evoked calcium signal. activity change, negative = inhibition, % (test concentration not listed). actives 0.02% (n = 390,000). AID 624415; in the data active means activity change below about -50%; inconclusive means about -30% to -50%; inactive means above about -30%;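 also: stimulus is agonist 54-4 at its EC80 concentration; % is scaled to controls: 0 for no effect and ±100 for the full control effect; compound concentration not given in the record; the text of the record puts the active cut at -80%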
Target sequence (Q9GZU1 whole entry, looked up): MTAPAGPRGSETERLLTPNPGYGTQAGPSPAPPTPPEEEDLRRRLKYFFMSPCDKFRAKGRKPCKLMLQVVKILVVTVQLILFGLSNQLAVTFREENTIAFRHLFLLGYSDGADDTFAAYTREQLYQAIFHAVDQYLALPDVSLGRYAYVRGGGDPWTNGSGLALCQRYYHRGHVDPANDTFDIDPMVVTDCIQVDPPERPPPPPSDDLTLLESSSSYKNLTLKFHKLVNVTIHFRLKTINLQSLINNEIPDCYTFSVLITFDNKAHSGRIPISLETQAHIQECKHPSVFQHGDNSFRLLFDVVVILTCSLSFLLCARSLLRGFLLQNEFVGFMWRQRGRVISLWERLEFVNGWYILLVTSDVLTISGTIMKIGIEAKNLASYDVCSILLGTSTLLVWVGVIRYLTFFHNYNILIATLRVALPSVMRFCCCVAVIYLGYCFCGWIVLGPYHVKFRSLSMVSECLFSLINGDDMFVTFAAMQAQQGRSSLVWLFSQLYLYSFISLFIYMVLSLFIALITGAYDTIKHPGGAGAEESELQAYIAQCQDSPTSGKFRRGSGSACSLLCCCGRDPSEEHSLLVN
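Tet-induced TRPML1-DL cells loaded with Ca8 no-wash calcium dye were read kinetically on FDSS. Compound addition was followed by EC80 agonist 54-4 (4 uM final); inhibition was read over 110 s.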
TRPML1 ag: activates the human TRPML1 channel; Q9GZU1; TRPML1-expressing cells, Ca2+ dye fluorescence, FDSS; host cell line not named in the record; reference of the full effect not given here; activation, % (no concentration beside the values); actives 0.12% (n = 410,000); AID 624414; in the data active = activation above about 50%; inconclusive = about 30% to 50%; inactive = below about 30%; also: 0% is about no effect; the text of the record puts the active cut at 80%
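Tetracycline-induced TRPML1-DL cells are seeded and incubated overnight before loading with a no-wash Ca2+ dye and quencher. Agonist activity is taken from the 110 s fluorescence read following compound pin-transfer on an FDSS, before EC80 54-4 challenge.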
ClpP mod: qHTS Assay for Activators of ClpP; AID 651965, 2013; purified B. subtilis ClpP, FRET peptide cleavage, 20 min; ATP-dependent Clp protease proteolytic subunit (Bacillus subtilis (strain 168)), P80244; Potency, µM (series often up to 57.5 µM), inactives show at the highest dose activity change, negative = active; actives 1.9% (n = 340,000); active = well fitted falling curve with a large enough effect; inconclusive = small, poorly fitted or top-dose-only effect; inactive = no such curve, though single readings can be large or run the other way; also: potency is read from the fitted curve at half-maximal effect; the source files actives as falling curves though it sought activators and does not explain the sign; nearly all actives have a fitted effect of over 65% in size; many hits overshoot -100%
Target sequence (P80244 whole entry, looked up): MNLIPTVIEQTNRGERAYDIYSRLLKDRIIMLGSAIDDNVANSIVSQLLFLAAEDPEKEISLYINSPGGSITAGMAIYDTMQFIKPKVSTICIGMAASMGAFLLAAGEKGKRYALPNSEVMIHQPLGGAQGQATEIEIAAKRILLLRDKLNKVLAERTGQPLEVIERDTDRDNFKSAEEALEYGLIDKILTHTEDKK
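Purified B. subtilis ClpP, 10 microg/mL final in Tris/HCl pH8 with KCl, BSA, glycerol and Tween-20, cleaved an Abz/nitrotyrosine-quenched decapeptide. Fluorescence (ex 320, em 430) was read at 0 and 20 min at room temperature. Delta was normalized to 5.8 microM ADEP and DMSO/no-enzyme controls.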
gsp ag: activates gsp, the McCune-Albright syndrome mutation; gsp mutant cells, cAMP HTRF, 30 min; control for the full effect not named in the record; AID 624287; Potency, µM (series often up to 76.9 µM), without a hit: top-dose activation (cAMP increase), actives largely listed as activators; actives 0.13% (n = 340,000); active = well fitted activation curve with a large enough effect; inconclusive = small, poorly fitted or top-dose-only effect, or another doubt; inactive = no such curve, though single readings can be large or run the other way; cell line not stated here;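 also: phosphodiesterase inhibitor Ro 20-1724 added with compounds to block cAMP breakdown; potency is read from the fitted curve at half-maximal effect; nearly all actives have a fitted effect of over 60% in size; about a fifth of the inactives were tested at one dose only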
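Cells stably selected in G418 were plated at 2000/well, grown 16-24 hr, then given compounds in DMSO with the PDE inhibitor […] (300 uM solution added) for 30 min at 37C; cAMP was read by HTRF.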
Starred values were filed as active, the others as inactive; ? = inconclusive; nt = no result given; [ ] = another dose, or the depositor's remark. Hits appear at their usual frequency; about 2.1% have a hit in one of these screens.

SMILES	Menin-MLL FL inh	gsp antag	TRPML1 inh	TRPML1 ag	ClpP mod	gsp ag
CC(C)(C)SCCNC(=O)c1cccc([N+](=O)[O-])c1	-1.5	7%	1	0.4	-1.9%	?
COc1ccccc1N1CCN(C(=O)c2cccc(Oc3ccccc3)c2)CC1	0.9	-7%	-4	0.8	0.7%	-37%[inhibitor]
CSCCC(NC(=O)c1ccc([N+](=O)[O-])cc1Cl)C(=O)OCC(=O)C12CC3CC(CC(C3)C1)C2 (centres undefined)	6.0	-15%	81	1.2	2.1%	-3%
Cc1ccc(NC(=O)Cn2c(=O)n(-c3ccccc3)c(=O)c3c4c(sc32)CCCC4)cc1	nt	nt	-17	-0.6	0.3%	nt
O=C(COc1ccccc1Cl)N1CCN(c2ncccn2)CC1	6.9	6%	-2	-0.1	-14%	-33%
COc1cccc(-c2nc(N3CCCCC3C)c3ccccc3n2)c1O (centres undefined)	3.5	-40%	-3	0.4	-0.3%	0%
O=C(NCc1ccccc1Cl)C1CCN(S(=O)(=O)N2CCCCCC2)CC1	2.4	?	-3	0.2	-0.8%	0%
O=C1NN(c2ccccc2)C(=O)/C1=C/c1ccc(Sc2ccc(Cl)cc2)o1	?	-5%	-19	-0.3	-3.8%	21%
Cc1ccc(Cc2c(C3CCCCC3)nc3c4ccccc4ccn23)cc1	nt	nt	?	10	?	nt
CC(=O)c1cccc(NC(=O)CCc2nc3cccnc3n2Cc2cccs2)c1	nt	nt	29	1.2	-9.6%	nt
Cc1c(C(=O)NCc2ccc(Cl)cc2)sc2nc3n(c(=O)c12)CCCC3	nt	nt	22	0.4	-19%	nt
CCc1nc2ccccc2c(C(=O)Nc2ccc(F)cc2)c1C	-2.0	6%	13	0.2	-0.3%	-24%
CC(=O)c1cc(C)ccc1OC(=O)CN1C(=O)c2ccccc2C1=O	-4.1	-4%	-3	-0.4	0.2%	-48%[inhibitor]
Cc1nn(CC(=O)N2CCC(N3CCCCC3)CC2)c(=O)c2c1sc1ccccc12	-0.4	8%	-19	0.1	4.4%	-2%
CC(C)N1C(=O)CC2(CC[N+](C)(CCOC(=O)C(c3ccccc3)c3ccccc3)CC2)C1=O (centres undefined)	2.6	14%	-4	-1.0	0.3%	5%
Cc1ccc(SCC(=O)N(Cc2nc(-c3ccccc3)no2)C(C)C)cc1	-2.6	?	-5	0.8	-3.4%	-9%
COc1ccc(NC2CCCN(C(=O)c3ccc4nc(C)c(C)nc4c3)C2)cc1OC (centres undefined)	2.4	-19%	-1	0.1	-2.5%	3%
CCN1C[C@@H]2[C@@H]3C(=O)N(C)C(=O)[C@@H]3[C@](CC)(C1=O)N2C(=O)c1ccc(C)cc1	nt	-3%	0	-0.5	-0.8%	-2%
N#CC1=C(N)Oc2c(ccc3cccnc23)C1c1cccnc1 (centres undefined)	4.0	2%	1	-0.5	25µM*	31%
O=c1[nH]c(=S)n(-c2ccc(Br)cc2)c2ncccc12	nt	-15%	-15	-0.2	nt	1%
COc1ccc(N2CCN(C(=O)c3ccc4c(c3)N(Cc3ccc(F)cc3)C(=O)c3ccccc3S4=O)CC2)cc1 (centres undefined)	nt	nt	0	-1.0	1.0%	nt
Cc1ccc2[nH]c(=O)c(CNC(C)C)cc2c1	-0.8	6%	-19	0.7	?	?
O=C(CC(=O)Nc1cccnc1)Nc1cccnc1	4.3	8%	18	-0.6	-0.6%	6%[15.4 µM]
Cc1ccc(C(=O)O/N=C(\c2ccccc2)c2cccnc2)cc1	-7.1	5%	14	3.5	0.1%	-79%[inhibitor]
C=C1CCN(C(Cc2ccccc2)C(=O)Nc2ccc(OC)cc2)S(=O)(=O)c2ccccc21 (centres undefined)	2.9	nt	3	2.1	nt	nt
O=C(CSc1ccc2nc(-c3ccccc3)cn2n1)Nc1ccccc1C(F)(F)F	nt	nt	-17	-1.1	?	nt
CCOC(=O)c1c(C)[nH]c(C(=O)COC(=O)c2ccccn2)c1C	12	-10%	10	-1.0	0.0%	-20%
CCn1c(SCc2nc3sc(C(=O)O)c(C)c3c(=O)[nH]2)nc2ccccc21	?	-10%	7	2.5	-15%	-29%
COC(=O)c1[nH]c2ccc(C)cc2c1NC(=O)CN1CCN(C(=O)c2ccccc2)CC1	-0.6	?	-5	-0.7	14µM*	5%
Cc1cc(C)cc(OCC(=O)O/N=C(\N)Cc2ccc([N+](=O)[O-])cc2)c1	5.2	-3%	31	0.8	nt	18%[15.4 µM]
CC(C)c1ccccc1NC(=S)NCc1ccccc1F	4.3	-2%	-10	2.0	nt	-8%[15.4 µM]
CCc1cccc2c(C(=O)Cn3nnc(-c4ccc(OC)c(OC)c4)n3)c[nH]c12	3.8	-16%	-10	-0.4	?	22%
Cc1ccc(NC(=O)NC2CC(=O)N(c3ccc4c(c3)OCCO4)C2)cc1C (centres undefined)	nt	4%	10	-0.3	-2.8%	10%
CSc1ccccc1C(=O)OCC(=O)Nc1cccnc1Cl	nt	-15%	-15	-0.3	-1.8%	7%[15.4 µM]
CC(=O)Nc1cccc(NCC(=O)Nc2cc(S(=O)(=O)N3CCCCC3)ccc2Cl)c1	nt	-20%	4	-0.4	0.9%	-2%[15.4 µM]
CC(=O)N1C2CCCCC2S[C@H]2CCCCC21 (some centres undefined)	2.0	2%	-3	-0.1	-0.1%	-4%
CN(C)C(CNC(=O)c1cc2ccccc2o1)c1ccco1 (centres undefined)	nt	4%	-5	0.0	-5.1%	-16%
Clc1ccc(CSc2nnc(CN3CCOCC3)n2-c2ccccc2)cc1Cl	-1.3	-6%	-8	0.2	1.3%	-1%
COc1cccc(CNC(=O)c2cc3ccc4cccnc4c3[nH]2)c1	nt	nt	-10	-0.3	-6.1%	nt
O=C(O)CCc1c(C(=O)O)[nH]c2ccccc12	-0.6	12%	6	-0.7	-10%	-15%
O=C1CC[C@@H](CN(Cc2ccccn2)Cc2nc(Cc3cccc(C(F)(F)F)c3)no2)N1	3.0	3%	-8	0.7	-0.3%	-34%[inhibitor]
CCOc1cc(C(=O)Nc2nnc(C)s2)cc(OCC)c1OCC	5.4	-12%	22	0.7	-0.8%	9%
COc1cc(CCC(=O)Nc2ccc(C)c(S(=O)(=O)N(C)C)c2)cc(OC)c1OC	1.3	-10%	25	0.8	-4.2%	-13%
Cc1ccc(NC(=O)CC2=NC(=O)C(CC(=O)Nc3ccccc3F)S2)cc1 (centres undefined)	0.0	2%	-11	-0.6	25%	0%
CCCCCCOc1ccc(/C(N)=N/O)cc1	8.5	8%	-1	2.6	0.8%	?
COC(=O)Cc1ccc(OC2(C)CCN(Cc3ccc(-c4ccccn4)cc3)C2)cc1 (centres undefined)	nt	nt	-22	-0.3	-1.5%	nt
C/C(=N\NC(=O)COc1ccccc1-c1ccccc1)c1ccccn1	4.1	-22%	12	1.8	nt	14%[15.4 µM]
Cc1ccc(C(=O)N2CCN(c3ccccc3F)CC2)cc1S(=O)(=O)N1CCOCC1	1.6	2%	-6	0.7	nt	-17%
CCOc1ccccc1CNC(=O)c1ccc(NC(=O)C2=C(C)OCCS2)cc1	nt	-27%	11	1.6	-1.0%	40%
CCOC(=O)N1CCC(Nc2c(NCCCN3CCN(C4CCCCC4)CC3)c(=O)c2=O)CC1	-1.7	-26%	?	0.3	1.8%	6%
CC(=O)N1N=C(c2ccc(C)o2)CC1c1ccc(Br)cc1 (centres undefined)	-0.5	-7%	-27	-0.3	-28%	20%
Cc1cc(C)c(C#N)c(SCc2ccc(F)cc2)n1	4.8	-19%	4	3.2	0.8%	15%
CCc1ccccc1NC(=O)N1CCC2(CC1)Oc1ccccc1C(=O)N2Cc1ccccc1F	nt	nt	-3	-0.3	0.0%	nt
Cc1cnc(CN2CCc3c([nH]c4ccccc34)C2CC(C)C)[nH]1 (centres undefined)	?	8%	11	1.5	nt	-2%[15.4 µM]
O=C1CS/C(=N/N=C/c2ccc(OS(=O)(=O)c3ccccc3)cc2)N1	0.3	-4%	30	-0.2	0.9%	2%[15.4 µM]
COc1ccc([N+](=O)[O-])cc1-n1cccc1	0.7	0%	15	1.6	-2.1%	0%
O=C(c1cc(-c2ccncc2)nc2ccccc12)N1CCN(S(=O)(=O)/C=C/c2ccccc2)CC1	-2.4	-26%	7	1.8	0.2%	6%
COc1ccc(CCNC(=O)C2CC(=O)N(c3ccc(Br)cc3)C2)cc1OC (centres undefined)	4.0	30%[activator]	4	1.0	0.9%	-21%
COCCCNC(=O)c1ccc2c(c1)N(Cc1ccccc1)C(=O)c1ccccc1S2	nt	nt	6	-0.4	-2.3%	nt
CN(c1ccc(C(=O)N2CCc3ccccc3C2)cc1)S(C)(=O)=O	2.3	4%	7	0.9	-15%	19%

An excerpt from above in order of the TRPML1 inh value, falling:
Molecule | Menin-MLL FL inh | gsp antag | TRPML1 inh | gsp ag
CCc1nc2ccccc2c(C(=O)Nc2ccc(F)cc2)c1C | -2.0 | 6% | 13 | -24%
CCn1c(SCc2nc3sc(C(=O)O)c(C)c3c(=O)[nH]2)nc2ccccc21 | ? | -10% | 7 | -29%
O=C(COc1ccccc1Cl)N1CCN(c2ncccn2)CC1 | 6.9 | 6% | -2 | -33%
O=C(CSc1ccc2nc(-c3ccccc3)cn2n1)Nc1ccccc1C(F)(F)F | nt | nt | -17 | nt

New compounds follow
SMILES	Menin-MLL FL inh	gsp antag	TRPML1 inh	TRPML1 ag	ClpP mod	gsp ag
Cc1ccc(C(C(=O)NC2CCCCC2)N(C(=O)Cc2c[nH]c3ccccc23)c2ccccc2C)o1 (centres undefined)	2.0	-4%	51	1.2	-6.7%	0%
C=CCc1ccccc1OCC(=O)N/N=C/c1ccccc1OCC	-1.5	-6%	-2	2.6	-0.9%	-25%
Cc1ccc(N2CCN(S(=O)(=O)N3CCCCC3)CC2)cc1Cl	7.5	0%	67	1.4	-15%	-32%[inhibitor]
FC(F)(F)c1cccc(N2CCN(CC3CC4C=CC3C4)CC2)c1 (centres undefined)	4.8	3%	7	8.4	-2.0%	-57%[inhibitor]

Single records, from the list above. Order of values: Menin-MLL FL inh, gsp antag, TRPML1 inh, TRPML1 ag, ClpP mod, gsp ag
Profile of FC(F)(F)c1cccc(N2CCN(CC3CC4C=CC3C4)CC2)c1 (centres undefined) : 4.8, 3%, 7, 8.4, -2.0%, -57%[inhibitor]
Profile of C=CCc1ccccc1OCC(=O)N/N=C/c1ccccc1OCC : -1.5, -6%, -2, 2.6, -0.9%, -25%
Profile of Cc1ccc(C(C(=O)NC2CCCCC2)N(C(=O)Cc2c[nH]c3ccccc23)c2ccccc2C)o1 (centres undefined) : 2.0, -4%, 51, 1.2, -6.7%, 0%
